PKD1 kinase inh: inhibitors of human PKD1 kinase; Q15139; PKD1 kinase fluorescence polarization assay; inhibition, %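 (about 10 µM by stock and volumes)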; 200,000 compounds, 0.056% hits;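 active means inhibition of 50% or more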;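 further: controls were vehicle for no effect and a reference inhibitor for full effect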
Target sequence (Q15139 whole entry, looked up): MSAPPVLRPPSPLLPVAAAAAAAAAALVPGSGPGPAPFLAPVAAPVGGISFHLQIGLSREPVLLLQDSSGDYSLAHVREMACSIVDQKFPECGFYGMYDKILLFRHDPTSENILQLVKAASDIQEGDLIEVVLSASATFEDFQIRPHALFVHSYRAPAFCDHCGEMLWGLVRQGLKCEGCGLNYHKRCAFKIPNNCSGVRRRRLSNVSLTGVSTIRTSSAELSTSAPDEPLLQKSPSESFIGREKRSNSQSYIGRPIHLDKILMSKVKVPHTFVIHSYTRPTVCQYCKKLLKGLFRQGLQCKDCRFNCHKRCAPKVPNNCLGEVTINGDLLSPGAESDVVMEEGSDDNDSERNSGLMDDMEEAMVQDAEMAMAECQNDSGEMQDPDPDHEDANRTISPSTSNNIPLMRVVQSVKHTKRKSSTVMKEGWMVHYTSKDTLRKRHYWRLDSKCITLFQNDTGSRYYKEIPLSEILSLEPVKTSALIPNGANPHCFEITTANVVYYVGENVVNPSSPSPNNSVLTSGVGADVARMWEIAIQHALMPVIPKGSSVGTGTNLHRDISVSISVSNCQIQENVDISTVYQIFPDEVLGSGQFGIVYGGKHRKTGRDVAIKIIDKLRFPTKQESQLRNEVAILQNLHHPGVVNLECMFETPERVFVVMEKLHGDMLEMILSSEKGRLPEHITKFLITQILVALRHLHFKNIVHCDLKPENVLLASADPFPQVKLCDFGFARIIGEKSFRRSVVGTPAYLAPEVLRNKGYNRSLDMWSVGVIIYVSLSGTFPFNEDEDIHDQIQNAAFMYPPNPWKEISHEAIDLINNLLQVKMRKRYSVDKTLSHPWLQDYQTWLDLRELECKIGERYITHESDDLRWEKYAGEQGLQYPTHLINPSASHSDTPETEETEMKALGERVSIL
Insulin prom inh: TRM-6 insulin promoter activity inhibition. TRM-6 cells (human fetal islet line), insulin promoter-eGFP reporter, imaging; reporter expression induced with tamoxifen. inhibition, % at 2 µM. 130,000 compounds, 0.9% hits. AID 1273;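 active means inhibition above the mean plus 3 SD, with well images judged a real hit on visual review, cut at about 60% in these data, passing the limit was not always enough; inconclusive means inhibition over the cutoff but images rejected on review; inactive means inhibition not above the cutoff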
RGS16-Gao HTS: RGS16-Galphao interaction regulator (human). bead-based flow cytometry RGS16-Galphao binding, fluorescence; actives lie on both sides. binding response (% of control), % at 10 µM. 220,000 compounds, 0.38% hits. AID 1441;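 active means below 25% or above 175%, edge rows of some plates excepted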;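 further: Galphao activated by GDP with aluminum fluoride before binding; 100% = wells without compound and 0% = beads without RGS; some results beyond the cut were filed as inactive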
HSV augment: HSV replication enhancement; HSV replication augmentation in cells, fold increase; maximum fold increase; 220,000 compounds, 0.005% hits; AID 1956;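 active means peak rise of 1.5-fold or more in the series; inconclusive means self-fluorescent or not available for retest; tested in PC3 cells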;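 further: first round at 10 µM; read as green reporter fluorescence; hits show the peak of a series up to 25 µM; 1 = signal of infected wells without compound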
GALR2 ag: GALR2 (human) receptor agonism; GALR2-expressing cells, agonist activation read-out; activation, %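 (tested at 5 µM)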; 140,000 compounds, 0.48% hits;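 active means above mean plus 3 SD of all compounds, about 5% in these data, not always enough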;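 further: 0% = vehicle buffer wells and 100% = reference agonist at full effect; tested in CHO reporter cells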
Insulin prom inh cell count: further read-out of Insulin prom inh, marked with its call; normalized cell count, %; measured here: cell count, toxicity; reference of the scale not given here;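 cells exposed to compound for 48 h; stained nuclei by imaging scaled within each plate; lower means fewer cells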
HSV augment primary fold: further read-out of HSV augment, marked with its call; fold increase; compound at 10 µM; measured here: primary screen fold increase 10 uM; tested in PC3 cells;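 GFP signal in the first replicate; 1 = infected wells without compound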
Starred values were filed as active, the others as inactive; i = inactive; ? = inconclusive; / = no result given. An unsorted share of the library. Share with any hit: about 1.3%.

SMILES	PKD1 kinase inh	Insulin prom inh	Insulin prom inh cell count	RGS16-Gao HTS	HSV augment	HSV augment primary fold	GALR2 ag
Cc1cccc(C)c1NC(=O)COC(=O)C1Cc2ccccc2CN1C(=O)c1ccccc1 (configuration not stated)	-17	-20	128	110	i	1.1	0.2
CC(=O)Nc1ccc(S(=O)(=O)NNC(=O)c2sc(=S)n(C)c2C)cc1	2	/	/	92	i	1.1	-1.1
O=C(O)CCCn1cc(NC(=O)COc2cc(F)ccc2[N+](=O)[O-])cn1	8	7	96	112	i	1	/
O=C(CSc1nnc(-c2ccco2)o1)c1ccc([N+](=O)[O-])cc1	/	/	/	101	i	1	/
Cc1cc(C)nc(SCC(=O)Nc2ccc(S(=O)(=O)Nc3onc(C)c3C)cc2)n1	-8	/	/	105	i	0.91	-1.5
Cn1c(O)c(/C=C2\C=NN=C2c2ccccc2)sc1=S	/	/	/	98	i	1	/
COc1ccc(NC(=S)NCc2cccn2C)cc1	0	/	/	98	i	1.1	/
CN(C)c1nnnn1Cc1ccc(Cl)cc1Cl	3	-8	133	95	/	/	/
CCn1c(-c2nn(C)cc2Cl)n[nH]c1=S	4	27	98	96	i	0.96	-1.8
Cc1nc(/C(N)=N/OC(=O)c2ccc(Cl)cc2)c(C(F)(F)F)o1	/	/	/	102	i	1	/
O=c1nc(N/N=C/c2ccco2)cn[nH]1	3	0	113	101	i	1	/
COC(=O)Cn1c(CCS(=O)(=O)c2ccc(C)c(C)c2)nc2ccccc21	-5	/	/	101	i	0.91	-0.9
CCCCN(Cc1ccccc1)C(=O)CCN1C(=O)C2C3C=CC(C3)C2C1=O (configuration not stated)	1	/	/	104	i	1	/
O=C(COC(=O)c1n[nH]c2ccccc12)Nc1ccc(S(=O)(=O)N2CCCC2)cc1	1	-6	105	98	i	0.85	-2.9
COC(=O)c1cccnc1-n1c(=O)c2cccnc2n(Cc2ccc([N+](=O)[O-])cc2)c1=O	-3	/	/	98	i	0.92	/
NS(=O)(=O)c1ccc(N/N=C2/CCCCC2C2CCCCC2)c([N+](=O)[O-])c1 (configuration not stated)	-19	3	127	107	i	0.43	4.7
O=C(NCCSCc1ccccc1)c1ccc(Cl)c(S(=O)(=O)N2CCOCC2)c1	4	-19	52	100	i	0.91	-1.7
OC(CN1CCCCC1)Cn1c(C(F)(F)F)nc2ccccc21 (configuration not stated)	-4	19	79	100	i	0.99	-0.9
Cc1ccc(CNC(=O)CCCNC(=O)c2ccc(Cl)cc2)n1C	-10	27	89	90	i	0.88	-0.5
CC1=NN(C(=O)CSCc2ccccc2)C(O)(c2ccccc2)C1 (configuration not stated)	-4	/	/	98	i	0.96	/

Whole records as entered above. Values in the order: PKD1 kinase inh | Insulin prom inh | Insulin prom inh cell count | RGS16-Gao HTS | HSV augment | HSV augment primary fold | GALR2 ag
`O=C(O)CCCn1cc(NC(=O)COc2cc(F)ccc2[N+](=O)[O-])cn1` reads 8 | 7 | 96 | 112 | i | 1 | /
`Cc1cc(C)nc(SCC(=O)Nc2ccc(S(=O)(=O)Nc3onc(C)c3C)cc2)n1` reads -8 | / | / | 105 | i | 0.91 | -1.5
`O=c1nc(N/N=C/c2ccco2)cn[nH]1` reads 3 | 0 | 113 | 101 | i | 1 | /

Continuation:
SMILES	PKD1 kinase inh	Insulin prom inh	Insulin prom inh cell count	RGS16-Gao HTS	HSV augment	HSV augment primary fold	GALR2 ag
CCc1ccc(NC(=O)c2cc(-c3ccc(OC)cc3)on2)cc1	6	-11	164	100	i	1.1	0.2
Cc1ccc(C)c(N2CCN(Cc3nnnn3C3CCCCC3)CC2)c1	-10	19	92	87	i	0.94	-0.3
Cc1cc(C)c(S(=O)(=O)Cc2ccc(Cl)cc2)c(=O)[nH]1	-11	0	211	108	i	0.96	/
CCOC(=O)c1nc2sc3c(c2c(=O)n1C(C)C(=O)OCC)CCCC3 (configuration not stated)	3	/	/	100	i	0.87	/
CCOC(=O)C1C(=O)CC(C)(O)C(C(=O)OCC)C1c1ccc2c(c1)OCO2 (configuration not stated)	-3	-14	113	/	i	1	-3.5
Clc1nc(CN2CCCCC2)nc2sc3c(c12)CCCC3	-3	/	/	98	i	0.69	/
COC(=O)c1scc2c(=O)cc(C(F)(F)F)[nH]c12	/	/	/	98	i	1.2	/
Nc1cc(=O)[nH]c(SCC(=O)Nc2ccc(Br)cc2)n1	0	-305	23	99	i	0.99	0.0
N=c1occ(C(=O)c2cc(F)ccc2O)cc1C(=O)NC1CCCCC1	-5	35	130	58	i	1	/
Cc1cccc(OCC(=O)Nc2nnn(C)n2)c1C	1	17	115	103	i	0.92	-0.8
COc1ccccc1NC(c1cccnc1)c1ccc2cccnc2c1O (configuration not stated)	10	/	/	90	i	0.9	-0.5
COc1cc(-c2nc3n(n2)C(c2ccc(F)cc2)C2=C(CCCC2=O)N3)cc(OC)c1OC (configuration not stated)	4	36	125	102	i	0.9	0.5
CNC(=O)c1ccccc1NC(=O)c1cccc(S(=O)(=O)N2CCCCC2)c1	2	/	/	98	i	0.92	/
CC(=O)NC(Cc1ccc(F)cc1)C(=O)O (configuration not stated)	-9	-29	59	102	i	1	-3.1
O=C(NNC(=O)c1ccc[nH]1)Nc1cc(Cl)cc(Cl)c1	/	/	/	102	i	0.97	/
Cc1cc(C)n(CC(O)COc2ccccc2[N+](=O)[O-])n1 (configuration not stated)	7	/	/	106	i	0.95	-2.0
COc1ccc(Cn2nnc3c(=O)[nH]c(C4CCCN(C(=O)c5ccccc5)C4)nc32)cc1 (configuration not stated)	7	50	120	104	i	0.88	-1.4
CCCC(=O)N1CCN(c2ccc([N+](=O)[O-])c(NC(C)c3ccccc3)c2)CC1 (configuration not stated)	3	11	103	94	i	0.85	-2.4
COc1cccc(-c2cc(C(=O)N3CCc4ccccc4C3)no2)c1	-10	-12	94	104	i	0.86	-1.4
O=C(CC(=O)N/N=C\c1cccc(Cl)c1Cl)NCc1ccccc1	14	-11	90	97	i	0.9	-2.1
CC(C)OP(=O)(OC(C)C)C(Nc1ccc(C(=O)O)cc1)c1ccccc1 (configuration not stated)	/	/	/	97	i	1.2	/
COC(=O)c1cc(C(=O)Nc2cc(C)ccn2)cc([N+](=O)[O-])c1	12	-118	117	95	i	0.93	-1.0
COc1ccc(-c2ccc(=O)n(CC(=O)Nc3ccc4c(c3)OCCO4)n2)cc1	7	62	117	104	i	0.87	/
CC(=O)Nc1sc(C)c(C)c1C(=O)OCC(=O)N(CC(C)C)C1CCS(=O)(=O)C1 (configuration not stated)	-13	27	178	99	i	0.73	-0.2
COc1ccc(CCNC(=O)Cc2ccc([N+](=O)[O-])cc2)cc1OC	/	/	/	101	i	1	/
Cc1c(CNC(=O)c2c([N+](=O)[O-])cnn2C)cnn1C	0	/	/	102	i	1.2	/
CC(=O)N1N=C(c2c(-c3ccccc3)c3cc(Br)ccc3[nH]c2=O)CC1c1ccco1 (configuration not stated)	/	/	/	94	i	0.73	/
COc1ccc(C(=O)Nc2cc(Cl)ccc2Cl)c(OC)n1	1	-11	93	105	i	0.93	-2.7
Cc1[nH][nH]c(=O)c1N=Nc1ccccc1Cl	/	/	/	106	i	0.92	/
CC(=O)c1ccc(OCC(C)C)c(CC(C(N)=O)C(N)=O)c1	-5	15	132	104	i	0.86	-1.2
CC(C)(C)NC(=O)/C(=C/c1ccccc1F)NC(=O)c1ccc([N+](=O)[O-])cc1	8	0	132	102	i	0.98	/
COc1ccc(C(=O)NC(=S)NNC(=O)c2cnccn2)cc1	-11	33	114	106	i	1.1	-0.3
CC(=O)/C=C(\C)N=Nc1c(O)[nH]c2ccccc12	/	/	/	102	i	1.1	/
CC1CCc2c(sc3nc(CSc4ncn[nH]4)[nH]c(=O)c23)C1 (configuration not stated)	-11	/	/	99	i	0.84	-0.1
COc1cc(NC(=O)c2ccc(C(C)(C)C)cc2)c(OC)cc1NC(=O)CN1CCCCC1	8	/	/	104	i	0.84	/
COc1ccc(S(=O)(=O)N2CCN(c3cc(-c4ccccc4)nc4ncnn34)CC2)cc1	14	-55	139	99	i	0.82	-2.5
COC(=O)Cn1c(CN2CCOCC2)nc2c1c(=O)[nH]c(=O)n2C	-6	/	/	102	i	1.1	-0.8
O=C1NCC(O)=C1C=NCCO	-6	-18	90	114	i	0.77	-2.1
CN1CC[n+]2cnc3ccccc3c21	-6	56	49	106	i	0.66	-1.5
Cc1cccc(CN2C(=O)CCSc3ccc(Cl)cc32)c1	4	-77	84	107	i	0.97	-3.2

Sorted by the number under HSV augment primary fold (lowest first): some entries from above.
molecule,PKD1 kinase inh,RGS16-Gao HTS,HSV augment,HSV augment primary fold,GALR2 ag
Cc1[nH][nH]c(=O)c1N=Nc1ccccc1Cl,/,106,i,0.92,/
O=c1nc(N/N=C/c2ccco2)cn[nH]1,3,101,i,1,/
Cc1c(CNC(=O)c2c([N+](=O)[O-])cnn2C)cnn1C,0,102,i,1.2,/

The listing continues.
SMILES	PKD1 kinase inh	Insulin prom inh	Insulin prom inh cell count	RGS16-Gao HTS	HSV augment	HSV augment primary fold	GALR2 ag
COc1ccc(/C(O)=C/C(=O)C(=O)NNC(=O)C(O)(c2ccccc2)c2ccccc2)cc1	4	50	84	101	i	0.89	-0.6
CCOC(=O)c1cc(C)sc1N1C(=O)C2C3C=CC(C3)C2C1=O (configuration not stated)	-5	48	61	109	i	0.67	-0.5
O=C(CCc1ccccc1)NNC(=O)c1ccc(NC(=O)c2ccccc2)cc1	-14	35	79	2.7*	i	1	-1.8
Cc1ccc(C2=NC3(CCCCC3)NC2=S)cc1	-6	62*	160*	106	i	0.95	0.0
CN1OC(COC(=O)c2ccccc2)CC1c1ccccc1 (configuration not stated)	-14	9	86	100	i	1.1	-0.7
Cc1cc(C)cc(NC(=O)COC(=O)CCCNC(=O)c2ccc(Cl)cc2)c1	-3	/	/	116	i	1	0.4
CN(CCc1ccccn1)C(=O)Nc1cccc(Cl)c1	/	/	/	93	i	0.65	/
Cc1cc(N2CCCCC2C)nc(-c2ccccc2O)n1 (configuration not stated)	/	/	/	103	i	1.1	/
COCCCNC(=O)CC(C)c1ccccc1 (configuration not stated)	14	50	70	93	/	/	-1.8
Oc1ccc(CNCC2COc3ccccc3O2)cc1 (configuration not stated)	-3	50	102	94	i	0.98	-2.0
CCCn1c(Nc2ccccc2)nc2ccccc21	-4	-10	139	98	i	1	-1.9
O=C(Nc1ccc(Oc2cccnc2)cc1)c1ccccc1Cl	1	/	/	106	i	1.1	-1.5
CN(C)c1nc(OCCNC(=O)COc2ccc(Cl)cc2Cl)nc(N(C)C)n1	-3	6	89	100	i	0.88	-1.4
Cc1ccc(-c2nn3nnnc3c3ccccc23)cc1	3	/	/	100	i	1.1	-0.9
COc1ccccc1NS(=O)(=O)c1ccc(O)cc1	-1	-8	89	-58	i	0.93	-3.6
CCCCCCSc1nnc(-c2cnn(-c3ccccc3)c2-n2cccc2)n1C	5	/	/	98	i	0.94	2.0
O=C(Cc1ccccc1)NCCSC1CCCCC1	-3	-12	88	104	i	1	/
O=C1N=C(N2CCCC2)S/C1=C\c1cccc(Br)c1	0	10	174	99	i	0.78	0.8
CN1CCc2nc(SCC(=O)Nc3cccc(F)c3)c(C#N)c(-c3cccs3)c2C1	-7	-20	84	100	i	1.2	-1.0
O=C(NCCN1CCOCC1)Nc1ccc(F)cc1	0	/	/	113	i	1	/
CCOCCCNS(=O)(=O)c1cc(Br)cc2c1N(C(=O)C1CC1)CC2	-8	-62	78	41	i	1	-0.8
COc1ccccc1C1C(C#N)=C(N)N(c2cccnc2)C2=C1C(=O)CC(C)(C)C2 (configuration not stated)	-7	50	42	98	i	0.81	-0.3
COc1ccc(CCNC(=O)COc2ccc(S(=O)(=O)NC3CCCCC3)cc2Cl)cc1OC	-6	/	/	113	i	0.83	1.2
COc1ccc(C2c3ccc(O)cc3Oc3ncn4nc(-c5ccco5)nc4c32)cc1OC (configuration not stated)	/	/	/	100	i	0.75	/
CCc1nn(-c2ccccc2)c2c1-c1cc(OC)c(OC)cc1C1(N2)C(=O)Nc2ccccc21 (configuration not stated)	7	4	78	7	/	/	-1.2
COC(=O)c1ccc(/C=N\NC(=O)c2ccc(C)cc2Cl)cc1	15	25	100	99	i	0.88	-1.8
CCOC(=O)C(NS(=O)(=O)c1ccc(C)cc1)(C(F)(F)F)P(=O)(OCC(C)C)OCC(C)C (configuration not stated)	-6	-48	84	104	i	1.1	0.0
Cc1cc2nc3c(=O)n(Cc4ccccc4)c(=O)[nH]c3nc2cc1N	/	/	/	102	?	/	/

Compound activity: PubChem BioAssay, several laboratories
